# UCH37 inh: blocks the human deubiquitinase UCH37 | purified proteasome/UCH37, Ub-AMC cleavage fluorescence | inhibition, % (concentration not given with the values) | hit rate 0.33% among 330,000 | Q9Y5K5;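 active = mean of two replicates above 20%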;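 also: 0% = compound-free wells with enzyme and 100% = wells lacking proteasome; stock transfer was 100 nL into about 20 µL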
# Target sequence (Q9Y5K5 whole entry, looked up): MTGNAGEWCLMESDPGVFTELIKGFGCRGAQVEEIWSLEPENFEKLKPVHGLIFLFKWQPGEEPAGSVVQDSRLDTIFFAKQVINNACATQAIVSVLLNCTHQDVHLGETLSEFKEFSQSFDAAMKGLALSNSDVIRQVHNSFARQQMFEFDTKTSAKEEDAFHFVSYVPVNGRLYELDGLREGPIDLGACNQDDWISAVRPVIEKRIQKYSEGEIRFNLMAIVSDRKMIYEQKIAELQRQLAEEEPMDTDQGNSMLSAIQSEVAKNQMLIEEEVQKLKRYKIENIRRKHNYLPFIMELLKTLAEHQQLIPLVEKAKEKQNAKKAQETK
#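 Reagent: Ub-AMC substrate; assay system: Proteasome-associated human UCH37 deubiquitinase; controls: no-proteasome and no-compound wells; read-out: % inhibition of Ub-AMC cleavage fluorescence; timing: 30 min preincubation with enzyme, 25 min cleavage at room temperature; signal: AMC fluorescence from Ub-AMC cleavage, excitation 355 nm, emission 460 nm; buffer or medium: Tris-HCl pH 7.4 plus ovalbumin, ATP-MgCl2, DTT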
# Ecoli growth: E. coli growth inhibition | Escherichia coli growth, OD600, 23 h; active compounds read low | OD600 absorbance (no concentration beside the values) | hit rate 0.21% among 330,000 | AID 1053175;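 active = OD600 absorbance below the run mean of sample wells minus 3.6 SD, in any replicate, cut at about 0.56 in these data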;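 also: stock transfer was 300 nL into about 60 µL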
# The depositor's hits bear a star. Not all compounds are listed; rates above refer to the full screens.
# Under each structure: UCH37 inh, Ecoli growth
> COc1ccc(C=NNC(=O)c2ccn[nH]2)cc1Cn1cc([N+](=O)[O-])cn1
  5.9, 0.643
> CCn1c(SCC(=O)Nc2cc(NC(C)=O)ccc2OC)nnc1-c1ccncc1
  5.4, 0.659
> C=CCNC(=O)C(=O)NN=Cc1cccc(Br)c1
  1.3, 0.727
> COc1ccc(C=NNC(=O)CSc2n[nH]c(=O)[nH]c2=O)cc1
  3.8, 0.659
> COc1ccccc1C=NNC1=NCCCCC1
  1.2, 0.668
> COC(=O)NN=Cc1cccs1
  3.7, 0.651
> COc1ccc(OC)c(C=NNc2nc(C)cc(=O)[nH]2)c1
  -378.1, 0.649
> O=C(CC=NOCc1ccccc1F)c1cnc(-c2ccc(Cl)cc2)s1
  -1.6, 0.756
> CC(CC(=O)NCCCN1CCOCC1)=NNC(=O)COc1ccc(C)cc1
  5.6, 0.716
> COc1cccc(C=NNc2nc3ccccc3n3cnnc23)c1
  4.0, 0.749
> CCc1n[nH]c2c1C(=NO)CC(C)(C)C2
  -0.6, 0.69
> CC1(C)C2CC=C(C=Nn3cnnc3)C1C2 (stereo unspecified)
  -0.8, 0.735
> O=C(NC1CSCC1=NO)c1ccccc1 (stereo unspecified)
  4.4, 0.728
> CCc1ccc(NC(=O)C(=O)NN=C(C)CC(=O)NCc2ccc(Cl)cc2)cc1
  0.5, 0.69
> CC(=NNC(=O)c1cc(-c2cccc(OC(C)C)c2)nc2ccccc12)c1cccnc1
  -2.4, 0.71
> CCCN1C(=O)C(=NOCC(=O)NCC(F)(F)F)c2ccccc21
  2.0, 0.69
> CCOc1cc(C=NNC(N)=O)ccc1OCC(=O)Nc1ccc(C)c(C)c1
  1.5, 0.704
> CN=c1scc(-c2ccc([N+](=O)[O-])cc2)n1N=Cc1ccco1
  5.8, 0.713
> CCOc1cc(C=NNC(=O)C(=O)NCCCOC(C)C)cc(Br)c1O
  10.6, 0.696
> O=C(O)c1ccc(C=NNC(=O)C(O)(c2ccccc2)c2ccccc2)cc1
  2.1, 0.68
> O=C(CON=Cc1ccc(OC(F)F)cc1)NCc1ccco1
  0.7, 0.621
> Cc1nn(CC(=O)NN=Cc2ccc(F)cc2)c(C)c1[N+](=O)[O-]
  2.0, 0.61
> Cc1c(C=NNC(=O)CNc2ccccc2)c2ccccn2c1C(=O)c1ccc(Cl)cc1
  4.5, 0.718
> COc1ccc(N2CC(C(=O)NN=Cc3cccs3)CC2=O)cc1 (stereo unspecified)
  -0.3, 0.693
> Cc1ccsc1C=NNC(=O)c1cccs1
  7.7, 0.685
> CCOC(=O)C(=NNc1ccc(Br)cc1)N1CCN(c2ccccc2OC)CC1
  5.1, 0.738
> O=[N+]([O-])c1ccc(C=NNS(=O)(=O)c2ccc(Cl)cc2)o1
  6.9, 0.502
> COc1ccc(Br)cc1C=NNC(=O)CN1CCCCC1
  5.7, 0.679
> CN(C)/C=C(\C=NOCc1ccc(Cl)cc1Cl)C(=O)Nc1ccc(Cl)c(Cl)c1
  8.2, 0.699
> CN=c1scc(-c2cccs2)n1N=Cc1ccccc1O
  3.0, 0.716

# Full records, looked up by structure. Screens in order: UCH37 inh | Ecoli growth
# `CCOc1cc(C=NNC(=O)C(=O)NCCCOC(C)C)cc(Br)c1O` reads 10.6 | 0.696
# `CN=c1scc(-c2ccc([N+](=O)[O-])cc2)n1N=Cc1ccco1` reads 5.8 | 0.713

# Looked up one by one from above:
# Under each structure: UCH37 inh, Ecoli growth
> CC(CC(=O)NCCCN1CCOCC1)=NNC(=O)COc1ccc(C)cc1
  5.6, 0.716
> CCc1n[nH]c2c1C(=NO)CC(C)(C)C2
  -0.6, 0.69
> CC(=NNC(=O)c1cc(-c2cccc(OC(C)C)c2)nc2ccccc12)c1cccnc1
  -2.4, 0.71

# The listing continues:
# Under each structure: UCH37 inh, Ecoli growth
> COc1cc(OC)c(OC)cc1C=NNC(=O)c1cc(-c2cccn2C)n[nH]1
  -16.7, 0.696
> CCn1c(SCC(=O)NN=Cc2cc(OC)c(OC)c(OC)c2)nc2ccccc21
  2.1, 0.696
> CC1(C)OC(c2ccccc2)=C/C(=C/C=NNC(=O)c2ccncc2)O1
  13.0, 0.674
> O=C(NN=Cc1ccoc1)c1ccccc1Br
  2.2, 0.684
> CON=Cc1ccc(N2CCN(C(=O)c3cccc(C(F)(F)F)c3)CC2)c([N+](=O)[O-])c1
  5.8, 0.723
> COc1ccc(C=Nn2c(-c3ccc(C)cc3)n[nH]c2=S)cc1OC
  7.8, 0.648
> CC1=CC(C)C(C=NN=C(N)N)C(C)C1 (stereo unspecified)
  3.1, 0.624
> CC(/C=C/c1cccc([N+](=O)[O-])c1)=NNC(=O)c1cccnc1
  7.8, 0.71
> COc1cc(C(=O)NN=C(c2ccccc2)c2ccccn2)cc(OC)c1OC
  8.0, 0.732
> COc1cc(C=N/N=C2/NC(=O)C(Cc3ccc(F)cc3)S2)ccc1O (stereo unspecified)
  9.1, 0.751
> NC(=S)NN=Cc1coc2ccc(O)cc2c1=O
  5.0, 0.652
> CC(=O)Oc1cccc(C=NNC(=O)C(=O)NN=Cc2cccc(OC(C)=O)c2)c1
  2.8, 0.68
> CN(C)c1ccc(C=NNC(=O)c2cnc3ccccc3c2)cc1
  5.1, 0.625
> CC(=O)NN=C(C)CC(=O)NC(C)(C)C
  0.3, 0.698
> Cc1ccc2c(c1)C(=NOC(=O)c1ccc(F)cc1)CCS2
  -4.7, 0.758
> O=C(/C=C/c1ccco1)NCC(=O)NN=Cc1ccccc1[N+](=O)[O-]
  5.7, 0.672
> O=C(CNc1cccc2ccccc12)NN=Cc1ccc(C(=O)O)cc1
  8.8, 0.688
> COc1ccc(C(=O)NN=C(Cc2ncc[nH]2)c2ccccc2)cc1
  6.6, 0.64
> COc1cc(C=NNc2nc(C)nc3c2cnn3-c2ccccc2)ccc1O
  -58.8, 0.654
> CC(=NNC(N)=S)C1C2C3CC4C5CC(C42)C1C53 (stereo unspecified)
  2.2, 0.734
> COc1ccc(OC)c(C=c2sc3nc(-c4cccs4)nn3c2=O)c1
  0.3, 0.65
> O=C(NN=Cc1ccco1)Nc1ccccc1
  4.5, 0.642
> COc1ccc(C=NN=Cc2ccc(OC)c(O)c2)cc1O
  5.9, 0.704
> CC(=O)NN=Cc1cc(C)n(-c2ccc(Br)cc2)c1C
  4.9, 0.624
> Cc1nn(-c2ccccc2)c(N2CCCC2)c1C=NNC(=O)c1ccccc1O
  -6.4, 0.64
> CCC1SC(=NN=Cc2ccco2)N(Cc2ccccc2C)C1=O (stereo unspecified)
  6.6, 0.681
> COc1ccccc1/C=C\C(=O)NCC(=O)NN=Cc1cccc(OC)c1O
  -2.5, 0.674
> COc1ccc2nc(C=NNC(=O)CCNC(=O)OC(C)(C)C)ccc2c1
  -337.8, 0.664
> COc1ccc2[nH]c3c(c2c1)CCN1C(=O)C(CC(=O)NC/C=C(\C)CCC=C(C)C)C[C@H](C(=O)N2CCCCC2)[C@@]31C (stereo partly specified)
  7.2, 0.707
> CC(=NNC(=O)CN1CCN(S(=O)(=O)c2ccc(Br)cc2)CC1)c1ccncc1
  2.4, 0.729
> CCN(CC)c1ccc(C=NNC(=O)CNC(=O)c2ccc3c(c2)OCCO3)cc1
  -191.3, 0.644
> CC1CCCCN1C(=O)C12CCC(C)(C(=NO)C1)C2(C)C (stereo unspecified)
  0.7, 0.715
> O=C(NN=Cc1ccc(Cl)cc1Cl)c1cccc(F)c1
  2.9, 0.714
> CC(=NNc1ccc(Cl)c(C(=O)O)c1)c1cc2ccccc2o1
  18.1, 0.709
> O=S(=O)(NN=C/C=C/c1ccccc1)c1ccc(Br)cc1
  10.8, 0.64
> O=C(O)c1ccccc1C=NN1CCN(C2c3ccccc3-c3ccccc32)CC1
  2.3, 0.568
> COc1cc(C=NNc2nc3ccccc3o2)cc(OC)c1O
  -3.1, 0.702
> COc1cc(C=NNC(=O)Nc2cccc3nsnc23)cc(OC)c1OC
  -14.2, 0.767
> N#CC(=NNc1ccc(F)cc1)C(=O)C1CC1
  11.0, 0.585
> Oc1ccccc1C=Nn1c2ccccc2c2ccccc21
  8.2, 0.665
> CSc1nncn1N=Cc1ccccc1F
  5.7, 0.657
> COc1ccc(C=Nn2cnc3c([nH]c4ccccc43)c2=O)cc1CO
  -13.6, 0.7
> CN(Cc1c(C(=O)NN=Cc2ccccc2F)nnn1-c1nonc1N)c1ccccc1
  2.6, 0.724
> c1ccc(NN=C(Cc2ncc[nH]2)c2ccccc2)cc1
  0.6, 0.682
> Cn1c(C=NNC(=O)c2ccccc2)nc2ccccc21
  -102.6, 0.676
> COc1cc(C(=O)Oc2ccccc2C=NNC(=O)c2ccc(C)cc2)cc(OC)c1OC
  -2.6, 0.688
> Brc1ccc(-c2csc(NN=Cc3ccco3)n2)cc1
  0.8, 0.676
> O=C(Cc1ccc([N+](=O)[O-])cc1)NN=Cc1ccccc1F
  -0.4, 0.704
> NC(=NOC(=O)Cc1ccc([N+](=O)[O-])cc1)c1cccc(Br)c1
  2.3, 0.708
> Cc1ccc(N(CC(=O)NN=Cc2cccs2)S(C)(=O)=O)cc1
  1.1, 0.74
> O=C(Cc1ccccc1Cl)NN=Cc1cccnc1
  -1.1, 0.706
> CN1CCc2c(sc(N=Cc3c[nH]c4ccccc34)c2C#N)C1
  -6.7, 0.667
> C(=NNc1nc2ccccc2[nH]1)c1cccc2cccnc12
  0.8, 0.528
> COc1ccc(C=NNC(=O)c2cc[n+]([O-])cc2)cc1
  13.6, 0.654
> Cc1ccc(C=NNC(=O)Cc2c[nH]c3ccccc23)c(C)c1
  1.5, 0.667
> COc1ccc(-c2nn(-c3ccccc3)cc2C=NNc2ccc(Cl)c(C(=O)O)c2)cc1OC
  -11.5, 0.667
> CC(=NNC(=O)c1ccc(Br)cc1)c1cccnc1
  4.4, 0.654
> C=CCNC(=S)NN=C1CCS(=O)(=O)c2ccccc21
  5.8, 0.69
> CC(/C=C/c1cccc([N+](=O)[O-])c1)=NNC(=O)c1ccncc1
  9.6, 0.644
> Cn1c2ccccc2c2cc(C=NNC(=O)c3ccc(O)cc3O)ccc21
  -51.5, 0.703

# (continued)
# Under each structure: UCH37 inh, Ecoli growth
> COc1cccc(C=NNc2ncnc3c2ncn3Cc2ccccc2)c1O
  -2.0, 0.671
> Cc1cc(C)c(S(=O)(=O)N=C2C=C(Sc3ncn[nH]3)C(=O)c3ccccc32)cc1C
  30.7*, 0.629
> COc1ccccc1C=Nn1cnnc1
  -9.1, 0.722
> NC(=NOC(=O)Cc1ccccc1[N+](=O)[O-])c1ccccn1
  2.6, 0.72
> CCOC(=O)C(CC)(CC)C(C)=NNC(=O)CC#N
  4.0, 0.746
> CN(C)Cc1c(C(=O)NN=Cc2ccc(-c3ccccc3)cc2)nnn1-c1nonc1N
  -4.7, 0.63
> CCOc1ccc(-c2cc(C(=O)NN=C(C)c3cccnc3)c3ccccc3n2)c(OCC)c1
  -68.6, 0.733
> COc1cccc(C=NNC(=O)c2ccc(CN3c4cccc5cccc(c45)S3(=O)=O)cc2)c1
  -93.6, 0.664
> CC(=NNC(=O)C1(C)CC1(Br)Br)c1cccc(NC(=O)C(C)(C)C)c1 (stereo unspecified)
  2.0, 0.66
> COc1ccc(C=NN2CCN(Cc3ccc(C)cc3)CC2)cc1Br
  3.8, 0.649
> C/C(C=NNC(=O)CSc1n[nH]c(=O)[nH]c1=O)=C\c1ccccc1
  5.1, 0.688
> Cc1ccc(C=Nn2c(-c3ccccn3)n[nH]c2=S)o1
  3.0, 0.668
> O=C(C[n+]1ccccc1)NN=Cc1ccc(O)cc1
  4.1, 0.656
> Cc1cc(O)c(C)c(O)c1C=NNC(=O)c1cccnc1
  6.7, 0.688
> FC(F)(F)c1ccc(C=NN2CCN(Cc3cccc4ccccc34)CC2)cc1
  2.6, 0.676
> O=C(CC12CC3CC(CC(C3)C1)C2)NN=Cc1ccncc1
  5.8, 0.708
> O=C(CNS(=O)(=O)c1ccccc1)NN=Cc1ccccc1[N+](=O)[O-]
  4.7, 0.622
> CN(C)C(=NS(=O)(=O)c1ccc(Br)cc1)c1ccccc1
  2.5, 0.712
> CCN(CC)c1ccc(C=c2sc3nnc(-c4ccccc4Cl)n3c2=O)cc1
  8.3, 0.754
> COc1ccc(C(C)=NNS(=O)(=O)c2ccccc2)cc1OC
  4.0, 0.698
> CCOc1ccc(C=NNC(=O)Cn2ccnc2C)cc1
  3.2, 0.702
> C=CCOc1ccccc1C=NO
  2.2, 0.69
> CC(=Nn1c(C)nc2ccccc2c1=O)c1ccc(N)cc1
  3.1, 0.651
> Cc1ccc(CSCC(=O)NN=Cc2cccc(OC3CSC3)c2)cc1
  5.1, 0.722
> COc1cc(C=Nc2oc(C)c(C)c2C#N)cc(Br)c1O
  11.0, 0.662
> COc1cc(C=NNC(=O)c2cccc(Cl)c2)ccc1Oc1ccc([N+](=O)[O-])cn1
  3.4, 0.655
> Cc1ccc(SCc2c(C(=O)NN=Cc3ccccc3)nnn2-c2nonc2N)cc1
  1.9, 0.637
> COc1ccc(C(=O)NN=CC(=O)c2ccccc2)cc1
  4.0, 0.662
> CC(=O)Nc1cccc(C(C)=NNC(=O)c2cccc(S(=O)(=O)N3CCOCC3)c2)c1
  0.4, 0.69
> O=C(NN=Cc1ccccc1)c1cc[n+]([O-])cc1
  9.5, 0.657
> O=C(O)c1ccc(NN=Cc2ccnc3ccccc23)cc1
  12.8, 0.689

# Rewritten as comma-separated lines: 2 of the compounds above.
canonical_smiles,UCH37 inh,Ecoli growth
CN(C)Cc1c(C(=O)NN=Cc2ccc(-c3ccccc3)cc2)nnn1-c1nonc1N,-4.7,0.63
CCN(CC)c1ccc(C=c2sc3nnc(-c4ccccc4Cl)n3c2=O)cc1,8.3,0.754

# Compound activity deposited in PubChem by ICCB-Longwood Screening Facility, Harvard Medical School.
